Screening results (PubChem BioAssay)
AID923 – qHTS Assay for Allosteric/Competitive Inhibitors of Caspase-1: Spectroscopic Profiling in AFC Spectral Region. compound fluorescence, AFC spectral region (405/520 nm); almost no hit is shown here. Potency, µM (top dose mostly 57.5 µM), inactives show at the top dose fluorescence increase, hits mostly activators. 75,000 tested, 1.1% active; active = well fitted activation curve with a large enough effect; inconclusive = small, poorly fitted or top-dose-only effect;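 note: potency is the fitted concentration of half-maximal effect; 0% is about no effect; scaled to a free AFC standard on each plate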
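Titrations up to 57 uM read every 20 sec for 3 min (405/520 nm) with 50 nM caspase 1 and 5 uM Ac-WEHD-AFC, pH 7.5 HEPES buffer. Fluorescence-vs-time intercept gave baseline, scaled against on-plate AFC standard.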
Resorufin fluor – compounds fluorescent in resorufin spectral region; Compound fluorescence, resorufin region 547/598 nm, buffer; hits give high values; max dye-equivalent concentration, M; 59,000 tested, 0.04% active; AID 588; active = above 10 nM dye equivalent; inconclusive = 1 to 10 nM; inactive = 1 nM or less; a few of its hits are not listed in these tables; note: highest value over a series up to 38 µM
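Read-out: intrinsic compound fluorescence at ex 547/em 598 nm after 15 min at RT in pH 8.0 Tris (100 mM). Values expressed as resorufin-equivalent concentration from per-plate standard series.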
A488 autofl – A488 region autofluorescence | compound autofluorescence, A488 spectral region, dye equivalency; hits give high values | max dye equivalency, M | 59,000 tested, 0.1% active | AID 591; active = above 10 nM dye equivalent; inconclusive = 1 to 10 nM; inactive = 1 nM or less; about half of its hits are not listed in these tables;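 note: highest value over a series up to 38 µM; compound alone in buffer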
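Autofluorescence read at ex 480/em 540 nm after 15 min RT in 100 mM Tris pH 8.0; compound signal normalized to A488 standard series on each plate, reported as dye-equivalent concentration at each test concentration.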
TSHR ag – TSH receptor (human) agonism; P16473; HEK293-CNG-TSHR cells (CNG channel as cAMP sensor), membrane potential dye, cAMP; Potency, µM (series often up to 57.1 µM), for inactives: at the top dose activation, hits mostly activators; 73,000 tested, 0.48% active; AID 926; active = well fitted activation curve of enough size with the parental cells flat; inconclusive = any curve in the parental cells; inactive = parental cells flat and receptor cells flat or falling; note: potency is the fitted concentration of half-maximal effect; % of control where 0% means no effect; weak receptor curves with flat parental cells got no call and are not listed
Target sequence (P16473 whole entry, looked up): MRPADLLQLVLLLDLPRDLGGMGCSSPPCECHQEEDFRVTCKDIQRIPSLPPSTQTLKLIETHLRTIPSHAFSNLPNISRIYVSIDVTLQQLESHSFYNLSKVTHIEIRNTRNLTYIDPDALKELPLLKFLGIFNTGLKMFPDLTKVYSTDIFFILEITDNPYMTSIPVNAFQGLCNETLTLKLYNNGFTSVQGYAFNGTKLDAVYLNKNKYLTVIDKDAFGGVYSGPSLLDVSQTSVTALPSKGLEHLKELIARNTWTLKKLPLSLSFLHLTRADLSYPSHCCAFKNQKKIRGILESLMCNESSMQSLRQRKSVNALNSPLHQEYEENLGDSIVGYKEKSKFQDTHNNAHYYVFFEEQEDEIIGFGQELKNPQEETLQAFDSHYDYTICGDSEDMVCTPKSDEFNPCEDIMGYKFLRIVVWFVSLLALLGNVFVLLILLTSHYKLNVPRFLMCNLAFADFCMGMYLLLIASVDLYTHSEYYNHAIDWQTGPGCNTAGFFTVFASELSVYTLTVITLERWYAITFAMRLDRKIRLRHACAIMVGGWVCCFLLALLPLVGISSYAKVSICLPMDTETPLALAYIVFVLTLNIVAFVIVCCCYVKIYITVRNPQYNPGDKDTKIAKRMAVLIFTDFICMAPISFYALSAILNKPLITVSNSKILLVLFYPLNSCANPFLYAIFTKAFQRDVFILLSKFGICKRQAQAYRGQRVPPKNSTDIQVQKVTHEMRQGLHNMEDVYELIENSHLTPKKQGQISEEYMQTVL
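cAMP rise detected as CNG-channel membrane depolarization by fluorescent dye (emission 590 nm), 30 min after compound, following 60 min dye loading containing 100 uM RO 20-1724 at room temperature. Cells: TSHR/CNG HEK 293, with parental CNG HEK 293 as control.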
A647 autofl – compound autofluorescence in A647 spectral region | Compound fluorescence, A647 channel (570/671 nm), Tris buffer | max dye-equivalent concentration, M | 59,000 tested, under 10 active; active means above 1 µM dye equivalent; inconclusive means 0.1 to 1 µM; inactive means 0.1 µM or less;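 note: values scaled relative to a standard on each plate; highest value over a series up to 38 µM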
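Tris 100 mM pH 8.0; cpd + A647 stds pin-transferred; 15 min RT; CCD imager, ex 570/em 671. Output = A647-equivalent conc. per cpd conc.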
The depositor's hits bear a star; i = inactive; u = inconclusive; x = not tested or not shown; & = joins results of further samples; [ ] = another dose, or the depositor's remark.

smiles	Resorufin fluor	AID923	TSHR ag	A488 autofl	A647 autofl
CCOC(=O)c1cc2c(ccn2C)n1CC(=O)N1CCN(c2ccccc2)CC1	i	3.3%	-5.6%	i	2.9e-08
CCCCn1c2nc3ccccc3nc2c2c(=O)n(CC(C)C)cnc21	i	x	x	i	1e-09
CCNc1nc(CC)nc2c1oc1ccccc12	i	0.1%	11.1%	i	1.93e-08
CCOc1ccc(C(=O)N2CCc3cc(OC)c(OC)cc3C2)cc1OCC	i	-0.4%	26.4%	i	1e-09
O=C(CSc1ncnc2ccccc12)Nc1ccc2c(c1)OCO2	x	0.1%	5.9%	x	x
O=C(Cc1ccc(Cl)cc1)Nc1cccc(-c2nnc(-c3ccco3)o2)c1	i	x	x	i	1e-09
c1ccc(N2CCN(c3nnc(Cc4cccnc4)c4ccccc34)CC2)nc1	i	-1.7%	-2.0%	i	8.4e-09
Cc1nnc(C)n1/N=C/c1cccn1C	i	x	x	i	1e-09
Cc1oc(-c2ccccc2)cc1C(=O)Nc1cccc(C(=O)O)c1	i	1.3%	2.6%	i	8.7e-09
CC(=O)Nc1ccc(S(=O)(=O)N2CCN(C34CC5CC(CC(C5)C3)C4)CC2)cc1	i	-0.8%	20.6%	i	1e-09

smiles	Resorufin fluor	AID923	TSHR ag	A488 autofl	A647 autofl
c1ccc(OCc2nn3c(Cn4nnc5ccccc54)nnc3s2)cc1	i	0.5%	10.2%	i	1e-09
COc1cccc(CN2CCN(C(=O)c3ccco3)CC2)c1OC	x	2.4%	-1.6%	x	x
COCCn1nnnc1C(c1cccc(OC)c1OC)N1CCN(C2CCCCC2)CC1 (configuration not stated)	i	1.8%	-2.6%	i	1.48e-08
O=C(O)Cc1coc(-c2ccc(F)cc2)n1	i	0.4%	1.2%	i	7.6e-09
CC(NC(=O)C1CC2CCCC(C1)C2=O)c1ccccc1 (configuration not stated)	i	1.5%	-3.3%	i	4.35e-08
Cc1occc1-c1nnc(SCC(=O)NCCc2ccccc2)n1Cc1ccccc1	i	-0.2%	u	i	1e-09
C=C(C)C(O)/C=C/c1ccccc1OC (configuration not stated)	x	-1.2%[11.5 µM]	-3.9%[11.4 µM]	x	x
CCc1nc(SCc2ccc(C(=O)OC)o2)c2c(=O)n(C)c(=O)n(C)c2n1	x	-1.1%	-1.5%[11.4 µM]	x	x
Cc1onc(-c2ccccc2Cl)c1C(=O)NCc1cccs1	i	-0.3%	4.4%	i	4.7e-09
O=S(=O)(Cc1ccc(Cl)cc1)Nc1ccc2c(c1)OCO2	i	-0.9%	70.3%	i	2.1e-09

smiles	Resorufin fluor	AID923	TSHR ag	A488 autofl	A647 autofl
Cc1ccccc1Cn1c(=O)n(CCCC(=O)NCc2ccco2)c(=O)c2ccccc21	i	2.4%	11.4%	i	3.05e-08
O=C1Cn2c(nc3ccccc32)-c2ccccc2N1	i	0.6%	2.9%	i	5.27e-08
COc1ccc(N(C)S(=O)(=O)c2cccc(C(=O)Nc3ccc(-n4cnnn4)cc3)c2)cc1	i	-0.9%	13.6%	i	5.2e-09
O=C(O)CN(Cc1ccccc1)S(=O)(=O)c1ccc(F)cc1	i	-0.4%	5.4%	i	2.18e-08
CC(=O)OCCN(Cc1ccccc1)Cc1ccc2c(c1)OCO2	i	-0.2%	25.1µM*	i	2.41e-08
Cc1ccccc1-c1coc2cc(O)ccc2c1=O	i	-0.4%	-4.0%	i	3.32e-08
CCOC(=O)c1nn(-c2c(C)n(C)n(-c3ccccc3)c2=O)cc1O	i	1.8%	-4.6%	i	1.38e-08
CCOc1ccccc1Oc1cn[nH]c1-c1ccc(OC)cc1O	i	-1.3%	7.2%	i	1e-09
CCC(=O)/C=C/C1C(C)=CCCC1(C)C (configuration not stated)	x	-2.0%	21.5%	x	x
CCOc1ccc(S(=O)(=O)N2CCN(S(=O)(=O)c3ccc(OCC)cc3)C(C)C2)cc1 (configuration not stated)	x	3.0%	13.5%[11.4 µM]	x	x

smiles	Resorufin fluor	AID923	TSHR ag	A488 autofl	A647 autofl
O=C(NCCCN1CCCCCC1)c1ccc(CS(=O)(=O)Cc2ccccc2F)o1	i	0.8%	-1.3%	i	7.3e-09
Cc1ccccc1Cn1ccc(NC(=O)c2nc3ncccn3n2)n1	i	-0.7%	0.3%	i	1.62e-08
O=C(COC(=O)c1ccccn1)Nc1nccs1	i	0.2%	0.8%	i	7.6e-09
O=c1cc(O)c2c(=O)[nH]c(=O)n(-c3ccccc3)c2[nH]1	i	-0.5%	2.0%	i	1.45e-08
COc1ccc(OCC(O)COc2ccc(C(=O)O)cc2)cc1 (configuration not stated)	i	1.2%	0.2%	i	3e-09
Cc1cc(Cl)ccc1NC(=O)CSc1nnc(-c2ccncc2)n1Cc1ccco1	i	-0.8%	8.7%	i	1e-09
CCOC(=O)c1[nH]c2ccc(OCC)cc2c1NC(=O)CN1CCC2(CC1)OCCO2	i	-1.9%	7.3%	i	1.11e-08
O=C(Nc1nc2n(n1)C(c1ccccc1)CC(c1ccc(Cl)cc1)N2)c1ccco1 (configuration not stated)	i	0.4%	5.8%	i	1e-09
Cc1c(C(=O)NC(C)C)oc2c1-c1[nH]ncc1CC2	i	-3.1%	3.2%	i	7.5e-09
COC(=O)COc1ccc(C(=O)OC)cc1	i	-1.1%	3.5%	i	1.52e-08

smiles	Resorufin fluor	AID923	TSHR ag	A488 autofl	A647 autofl
COCCCNC(=O)CCCn1c(=O)c2ccccc2n(CC(=O)Nc2c(C)cc(C)cc2C)c1=O	i	-0.5%	-2.9%	i	1.3e-09
C/C(Cl)=C\CNC(C)c1ccccc1 (configuration not stated)	i	-2.2%	18.3%	i	3.1e-09
CCNC(=O)NC(C(=O)OC)C12CC3CC(CC(C3)C1)C2 (configuration not stated)	i	0.6%	5.9%	i	1e-09
C[C@](O)(c1ccccc1)c1nccc2ccccc12	i	-0.1%[11.5 µM]	x	i	2.7e-08
S=c1oc(-c2ccncc2)nn1CCc1ccncc1	i	-3.1%	17.8%	i	5.74e-08
Cc1ccccc1CN1C(=O)C(O)(CC(=O)c2ccncc2)c2ccccc21 (configuration not stated)	x	-1.0%	12.4%	x	x
COc1ccc(CCNc2oc(COc3ccc(F)cc3)nc2C#N)cc1	i	-0.7%	u	i	8.9e-09
COc1ccc(C(=O)N2CCC3(CCCN(C(=O)NC(C)C)C3)CC2)cc1	i	1.0%	14.7%	i	1e-09
CC(=O)Oc1ccccc1N1C(=O)c2ccc(C(=O)O)cc2C1=O	x	1.7%	-1.9%[11.4 µM]	x	x
CCN(CC)S(=O)(=O)c1ccc(NC(=O)CN(c2cccc(F)c2)S(C)(=O)=O)cc1	i	-0.4%	-13.3%	i	2.08e-08

smiles	Resorufin fluor	AID923	TSHR ag	A488 autofl	A647 autofl
COc1cccc(NC(=O)NCCCN2CCN(c3ccc(F)cc3)CC2)c1	i	0.5%	-3.6%	i	4.87e-08
c1ccc(N(c2ccccc2)c2nc(N3CCCC3)nc(-n3ccnc3)n2)cc1	i	0.6%	u	i	4.3e-09
O=C(CSc1nnnn1-c1ccccc1)N1CCN(C(=O)c2ccco2)CC1	i	-2.7%	-6.1%	i	2.4e-09
O=C(Cn1c(NCCO)nc2ccccc21)c1ccco1	i	0.6%	-12.4%	i	7.4e-09
CCS(=O)(=O)N1CCC(C(=O)NCCCN2CCC(Cc3ccccc3)CC2)CC1	i	0.7%	4.5%	i	1e-09
CCOc1cc2c(cc1C(C)(C)C)NC(=O)CS2	i	-1.6%	17.0%	i	2.84e-08
CC(C)n1c(-c2ccc(N(C)C)cc2)nc2ccccc21	i	1.0%	21.9%	i	8.6e-09
CC(C)CCNC(=O)CCCn1c(=O)[nH]c2ccc(Br)cc2c1=O	i	1.3%	-2.0%	i	1.9e-08
O=C1CCCC2=C1C(c1ccccc1O)C1=C(CCCC1=O)O2	i	1.2%	6.0%	i	1.46e-08
COC(=O)C1=C(C)N(C2CCCC2)C(=O)C1(NC(C)=O)C(F)(F)F (configuration not stated)	i	0.2%	11.8%	i	1e-09

smiles	Resorufin fluor	AID923	TSHR ag	A488 autofl	A647 autofl
COc1ccc(Nc2nnc(Cc3ccc(Cl)cc3)c(=O)[nH]2)c(OC)c1	i	0.7%	13.1%	i	2.22e-08
CCOC(=O)c1ccccc1NC(=O)C1COc2ccccc2O1 (configuration not stated)	x	5.2%	u	x	x
O=C(NCc1ccccc1)NC1(C(=O)N2CCN(c3ccccc3)CC2)CCCCC1	i	-0.6%	u	i	1e-09
COc1ccc(NC(=O)Cc2ccc(Cl)cc2)cc1NC(=O)c1ccco1	i	-1.3%	-6.2%	i	6.6e-09
Cc1noc(C)c1-c1cncnc1NC1CC1	i	-0.3%	-1.7%	i	1e-09
Cc1c(-n2cc(C(=O)O)c(=O)c3cc(F)c(N4CCCC4)c(F)c32)c(=O)n(-c2ccccc2)n1C	i	-0.2%	2.7%	i	1e-09
Cc1cc(C(=O)COC(=O)CCCN2C(=O)c3ccccc3C2=O)c(C)n1C	i	-0.9%	u	i	1.14e-08
CC(C)NC[C@H](O)c1ccc(NS(C)(=O)=O)cc1	i	-1.8%	2.1%	i	1e-09&8e-09
c1cncc(-c2nnc(SCc3nc4ccccc4[nH]3)o2)c1	i	0.4%	1.9%	i	4.02e-08
Cc1ccc(N2C(=O)c3oc4ccccc4c(=O)c3C2c2cccc(O)c2)nc1 (configuration not stated)	x	-1.5%	-41.3%[inhibitor]	x	x

smiles	Resorufin fluor	AID923	TSHR ag	A488 autofl	A647 autofl
O=c1[nH]c2ccc(Br)cc2c(-c2ccccc2)c1N1CCOCC1	x	16.4%	u	x	x
O=C(O)c1c[nH]c2ccc(S(=O)(=O)N3CCN(c4ccc(F)cc4)CC3)cc2c1=O	i	1.0%	0.5%	i	5.7e-09
CCCC1(c2ccccc2)NC(=O)N(CC(=O)c2[nH]c(C)c(C(=O)OCC)c2C)C1=O (configuration not stated)	i	-2.2%	u	i	8.1e-09
Cc1c(NC(C)C)c(=O)n(-c2ccccc2)n1C	i	-0.9%	0.5%[25.6 µM]	i	1e-09
CCCCOc1ccc(-c2nc(-c3cccnc3)no2)cc1	x	-0.6%	4.9%[11.4 µM]	x	x
COc1ccc(C(=O)NCc2cccnc2)cc1S(=O)(=O)N1CCOCC1	i	1.9%	1.1%	i	1e-09
Cc1cc(=O)[nH]c(SCC(=O)Nc2cccc(C(F)(F)F)c2)n1	i	-0.4%	u	i	3.71e-08
CCN(CC)CCn1c2ccccc2c2nc(C)sc21	i	-2.1%	21.3%	i	5.9e-09
Cc1ccc(S(=O)(=O)NC(=O)NCc2ccccn2)cc1	i	-1.2%	-1.4%	i	2.6e-09
COC(=O)c1ccccc1NC(=O)Cn1cc(Br)cn1	i	-0.3%	3.5%	i	1e-08
CN(C)c1ccc(C(=N)c2ccc(N(C)C)cc2)cc1	x	-1.2%	u	x	x
O=c1cc(N2CCC3(CC2)OCCO3)[nH]c(=O)n1-c1ccc(Br)cc1	i	0.8%	-0.3%	i	1e-09

Compounds from the list above with two or more sulfur atoms (2):
smiles	Resorufin fluor	AID923	TSHR ag	A488 autofl	A647 autofl
CCOc1ccc(S(=O)(=O)N2CCN(S(=O)(=O)c3ccc(OCC)cc3)C(C)C2)cc1 (configuration not stated)	x	3.0%	13.5%[11.4 µM]	x	x
CCN(CC)S(=O)(=O)c1ccc(NC(=O)CN(c2cccc(F)c2)S(C)(=O)=O)cc1	i	-0.4%	-13.3%	i	2.08e-08

This is a subset; the hit share may differ from the screen's.
